# eIF4H FP inh = human eIF4H binding inhibitors, primary screen, translation initiation inhibitor project, biochemical, uHTS, fluorescence polarization | 0.94% of 290,000 active | eIF4H fluorescence polarization binding assay | Eukaryotic translation initiation factor 4H (Homo sapiens), Q15056 | inhibition, % at 35 µM | AID 2012, 2009;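 active means 50% or more with normal probe brightness, or confirmed in later tests; inconclusive means above 50% with abnormal brightness, or retests that disagree; inactive means below 50% or failed in later tests; about a fifth of its hits are not listed in these tables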;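 further: calls also rest on retests at 20 µM and on dose response follow-up; 0% = protein and probe with vehicle and 100% = probe without protein; strong numbers were not always called active; many hits fall short of the cut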
# PABP FP inh = PABP poly(A) RNA binding inhibitors, primary screen, biochemical, fluorescence polarization, uHTS; Polyadenylate-binding protein 1 (Homo sapiens), P11940; 1% of 290,000 active; inhibition, % at 35 µM; AID 2014, 2009;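 active means 50% or more with normal probe brightness, or confirmed in later tests; inconclusive means above 50% with abnormal brightness, or retests that disagree; inactive means below 50% or failed in later tests; about a fifth of its hits are not listed in these tables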;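 further: calls also rest on retests at 20 µM and on dose response follow-up; controls were probe without protein and protein plus probe with vehicle; some compounds called inactive have numbers as strong as hits; many hits fall short of the cut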
# Target sequence (P11940 whole entry, looked up): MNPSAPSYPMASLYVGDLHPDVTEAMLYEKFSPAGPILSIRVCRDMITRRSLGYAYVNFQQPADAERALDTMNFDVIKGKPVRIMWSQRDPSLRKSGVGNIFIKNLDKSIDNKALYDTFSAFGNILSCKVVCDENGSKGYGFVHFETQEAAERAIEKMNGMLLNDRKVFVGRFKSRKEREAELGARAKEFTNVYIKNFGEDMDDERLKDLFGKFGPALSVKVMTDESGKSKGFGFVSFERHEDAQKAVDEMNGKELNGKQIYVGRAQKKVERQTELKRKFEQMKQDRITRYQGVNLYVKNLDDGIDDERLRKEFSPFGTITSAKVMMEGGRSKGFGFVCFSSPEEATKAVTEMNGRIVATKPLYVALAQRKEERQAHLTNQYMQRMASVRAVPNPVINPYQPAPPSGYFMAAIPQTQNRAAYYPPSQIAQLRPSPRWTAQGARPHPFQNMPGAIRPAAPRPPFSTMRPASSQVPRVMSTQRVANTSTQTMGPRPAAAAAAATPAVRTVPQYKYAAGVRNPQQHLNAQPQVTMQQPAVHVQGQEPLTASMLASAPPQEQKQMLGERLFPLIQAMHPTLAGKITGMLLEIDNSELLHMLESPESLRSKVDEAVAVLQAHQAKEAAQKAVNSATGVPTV
# UUG fidelity = modulators of yeast start codon fidelity, primary screen, whole organism, S. cerevisiae, single point, plate reader; S. cerevisiae UUG-firefly luciferase reporter, luminescence/redox ratio; activity score, % at 18.7 µM; 0.13% of 350,000 active; AID 602363, 2012;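 active means replicate mean at a twofold rise or more, about +100% in these data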;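 further: firefly luciferase made from a UUG start codon reports start codon fidelity; reporter light over untreated wells divided by growth signal over untreated wells; some hits fall short of that in this replicate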
# Rce1 inhib = yeast Rce1p protease inhibitors, primary screen, biochemical, fluorescence, cell-free homogeneous. CAAX prenyl protease 2 (Saccharomyces cerevisiae (strain ATCC 204508 / S288c)), Q03530. 0.27% of 290,000 active. yeast membranes, quenched prenylated peptide cleavage fluorescence. AID 2563, 2010. calls only;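 active means fall in fluorescence gain of 50% or more versus controls, with final raw signal at or below 3038400; inconclusive means same 50% fall but final raw signal above 3038400; inactive means fall in fluorescence gain under 50%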;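 further: plate controls were neutral control wells for no effect and wells lacking membranes for full effect; tested at 10 µM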
# MT1-MMP act inh = blockers of MT1-MMP proenzyme processing, primary screen, HT1080 RFP-PRO-GFP cells, GFP/RFP fluorescence; GFP/RFP ratio fluorescence, overnight; percent of plate control window, DMSO zero; GFP/RFP ratio change, % at 20 µM; 0.061% of 360,000 active; AID 651647, 2012; Matrix metalloproteinase-14 (Homo sapiens), P50281;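 active means GFP/RFP ratio change of at least 30% with cell ATP level not reduced by more than half and red fluorescence within 50% of control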; further: strong numbers were not always called active
#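 Assay system: HT1080 RFP-PRO-GFP cells | Dosing: 20 µM single dose, 1% DMSO | Incubation: Cells overnight before dosing, compound overnight, 37 °C, 5% CO2 | Evaluation: GFP/RFP fluorescence ratio | Control set: DMSO-only wells and HT1080 RFP-L50D-GFP cell wells as references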
# HIV Env fusion = inhibitors of HIV-1 Env-driven cell-cell fusion, primary screen, HeLa-JRFL effector, CEM21 target cells, luciferase | inhibition, % at 12.3 µM | 1.1% of 360,000 active | AID 651610, 2012;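 active means mean replicate inhibition score of at least 50 and every replicate individually at or above 50; inconclusive means only one of the two criteria met; inactive means mean below 50 and not all replicates reaching 50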;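 further: 0% = plate neutral controls and 100% = maraviroc near 300 nM; one replicate is shown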
# CSC inhib = cancer stem cell viability inhibitors, primary screen, luminescence. cancer stem cell-like cells viability. inhibition, % at 7.5 µM. 1.1% of 300,000 active;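 active means mean at 75% or more and at least half the replicates too; inconclusive means mean and replicates disagree; tested in HMLE shEcad cells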;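 further: 0% = median of negative and 100% = median of positive control wells; the first replicate is given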
# MT1-MMP act inh RFP = further read-out of MT1-MMP act inh, marked with its call; RFP signal change, %; measured here: RFP expression control read;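 0 = vehicle wells; hits needed this value within 50% of zero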
# * hit, by the source's call; i = inactive; ? = inconclusive; · = no result given; + = active, no number. Rows are unselected. About 2.9% of those tested had a hit in this group.
molecule	eIF4H FP inh	PABP FP inh	UUG fidelity	Rce1 inhib	MT1-MMP act inh	MT1-MMP act inh RFP	HIV Env fusion	CSC inhib
CNC(=O)CN(c1ccc(C(C)C)cc1)S(C)(=O)=O	-6	-3	-16	i	0	-1	-1	1
CCN(C(=O)COC(=O)c1c(C)nn(-c2ccccc2)c1Cl)c1c(N)n(Cc2ccccc2)c(=O)[nH]c1=O	·	·	-5	·	-4	-9	4	·
O=C(NCCCc1ccccc1)c1ccc(-n2cncn2)c([N+](=O)[O-])c1	·	·	-14	i	2	3	2	-8
COc1ccccc1NC(=O)c1nn(C)c(C(=O)Nc2ccccc2OC)c1[N+](=O)[O-]	0	11	2	i	1	-1	18	24
Cc1ccc(NC(=O)CN2C(=O)NC(Cc3ccccc3)C2=O)c(Br)c1 (stereo not given)	-11	-4	·	i	5	4	12	-14
CCSc1ccccc1C(=O)NCc1ccc2c(c1)OCO2	0	-8	-8	i	4	-1	-64	5
CC(=O)NC(CC(=O)Nc1ccc2c(c1)OCCO2)c1ccccc1 (stereo not given)	-11	4	-1	i	3	6	-19	5
Cc1nn(-c2ccccc2)c2sc(C(=O)NCCN3CCOCC3)cc12	2	2	-2	i	8	3	-235	16
CC1N(C)c2cc(NC(=O)c3ccco3)c(P(=O)(Nc3ccc([N+](=O)[O-])cc3)N3CCOCC3)cc2C1(C)C (stereo not given)	-8	-9	·	i	12	9	22	6
COc1ccc(NC(=O)COC(=O)c2ccco2)c([N+](=O)[O-])c1	4	10	-7	·	0	4	-14	-9
O=C(COC(=O)/C=C/c1cccc(Br)c1)NC1CCCCC1	·	·	-11	·	0	1	-19	7
O=C(NNC(=O)c1cc2cc(Br)ccc2oc1=O)c1ccc(O)cc1	-6	4	-7	i	-1	3	11	-6
CC1(C)CC(=O)C=C(c2ccc(-c3ccccc3)cc2)C1=O	·	·	-17	·	1	-1	-39	·
CN(CCO)C(=O)c1nc[nH]c1C(=O)N(C)Cc1ccccc1	·	·	-9	·	-3	-2	-9	·
O=C(CN1c2cccc3cccc(c23)S1(=O)=O)N1CCN(c2ccccc2)CC1	·	·	-8	·	0	3	·	-16
CC(C)c1cc(Br)ccc1OCCN1C(=O)NC(C)(C)C1=O	2	2	·	i	-1	-2	7	42
CCC(=O)N1CCCC1(C)C(=O)NCc1ccc(SC)cc1 (stereo not given)	·	·	-20	·	-3	2	-186	·
Cc1ccc(NC(=O)c2sc(Cl)nc2-c2ccccc2)cc1C	-1	7	-1	i	0	0	·	0
COc1cccc(C(=O)NCCS(=O)(=O)NC2CCCC2)c1	·	·	13	i	1	3	-29	3
Cc1ccc2nc(NC(=O)CN(C)S(=O)(=O)c3ccc(Br)s3)sc2c1	0	-3	-16	i	4	-7	·	51
CN1C[C@@H]2[C@@H]3C(=O)N(C)C(=O)[C@@H]3[C@](C)(C1=O)N2C(=O)c1ccc(Br)cc1	·	·	4	·	3	2	-10	·
O=C(CSc1nnc(-c2ccc(Cl)cc2Cl)n1C1CCCCC1)NC1CCS(=O)(=O)C1 (stereo not given)	18	0	-5	i	-3	0	·	-8
CCOc1ccc(-n2c(O)c(/C=N/Nc3nc(C)cc(C)n3)c3ccccc3c2=O)cc1	9	9	-28	i	-1	3	-5	66
CCc1nnc2n1N=C(c1ccc(Cl)cc1Cl)CS2	-7	20	-19	·	2	-9	-22	-2
O=C(NCCCn1ccnc1)c1cc2ccccc2oc1=O	-3	-9	·	i	3	5	-9	-16
CCOc1ccc(NC(=O)CCC(=O)NNC(=O)c2ccco2)cc1	-3	-6	-20	i	-2	-2	-1	-9
CCn1c(CNc2ccc(F)cc2)nnc1SCCN1CCCCC1	-4	-2	-2	i	-4	-1	-8	56
COc1ccc2c(CC(=O)OCc3nc4ccsc4c(=O)[nH]3)coc2c1	·	·	-18	·	1	5	16	-6
OCCc1c[nH]c2cc(F)ccc12	-1	-6	-15	i	2	-2	-7	-4
Clc1nn2cnnc2c2ccccc12	11	1	·	i	2	2	15	-4

# Three of these compounds in a different format:
> CCn1c(CNc2ccc(F)cc2)nnc1SCCN1CCCCC1
  eIF4H FP inh: -4
  PABP FP inh: -2
  UUG fidelity: -2
  Rce1 inhib: i
  MT1-MMP act inh: -4
  MT1-MMP act inh RFP: -1
  HIV Env fusion: -8
  CSC inhib: 56

> Cc1ccc(NC(=O)c2sc(Cl)nc2-c2ccccc2)cc1C
  eIF4H FP inh: -1
  PABP FP inh: 7
  UUG fidelity: -1
  Rce1 inhib: i
  MT1-MMP act inh: 0
  MT1-MMP act inh RFP: 0
  HIV Env fusion: ·
  CSC inhib: 0

> Cc1nn(-c2ccccc2)c2sc(C(=O)NCCN3CCOCC3)cc12
  eIF4H FP inh: 2
  PABP FP inh: 2
  UUG fidelity: -2
  Rce1 inhib: i
  MT1-MMP act inh: 8
  MT1-MMP act inh RFP: 3
  HIV Env fusion: -235
  CSC inhib: 16

# (listing goes on)
molecule	eIF4H FP inh	PABP FP inh	UUG fidelity	Rce1 inhib	MT1-MMP act inh	MT1-MMP act inh RFP	HIV Env fusion	CSC inhib
COCCn1c(SCC(=O)NCc2ccc3c(c2)OCO3)nc2ccccc2c1=O	-11	-9	·	i	-2	-1	11	-8
COc1ccccc1CNC(=O)COC(=O)/C=C/c1ccc2c(c1)OCO2	·	·	-19	·	4	5	-2	-20
N=c1c(C(=O)NCc2ccco2)cc2c(=O)n3ccccc3nc2n1C1CCCC1	78*	53*	0	i	1	2	-22	·
CCn1nc(NC(=O)C(C)C)c2cc3cccc(C)c3nc21	-2	-1	-18	i	-7	-5	12	-7
CC(NC(=S)Nc1ccc(Cl)cc1)C(c1ccccc1)N1CCOCC1 (stereo not given)	-11	-8	-33	i	1	-4	0	-1
Cc1c(C(=O)N2CCCC2)sc(NC(=O)c2cccs2)c1C#N	8	0	-15	i	-10	-4	·	-3
NS(=O)(=O)c1ccc(NC(=O)c2ccc(S(=O)(=O)N3CCCCC3)cc2)cc1	·	·	21	·	2	-9	-5	11
CCN(CC(=O)NCc1ccncc1)S(=O)(=O)c1cc(Cl)ccc1Cl	-2	1	-13	i	5	3	6	6
C[C@H](NC(=O)c1nc[nH]c1C(=O)N[C@H](C)c1ccccc1)C(=O)OCc1ccccc1	13	-2	-2	i	7	3	9	1
Cn1c(=O)cc(SCC(=O)NCCN2CCN(c3ccccc3F)CC2)c2cc(Cl)ccc21	8	2	-18	i	6	3	23	-10
O=C(CCc1nnc(Cc2c[nH]c3ccccc23)o1)NC1CCCC1	-12	-6	-8	i	1	3	14	-5
COc1ccc(OCc2nn3c(Cn4cnc5ccccc54)nnc3s2)cc1	2	5	-18	i	-5	-12	-207	-4
COc1cccc(CN2CCN(Cc3ccc4c(c3)OCCO4)CC2CCO)c1 (stereo not given)	19	8	-10	i	-2	0	1	·
O=C(Nc1ccc(-c2nnco2)cc1)c1ccccc1	-6	6	-13	i	1	3	-82	-9
O=C(CC(=O)Nc1cc(Cl)ccc1Cl)Nc1cc(Cl)ccc1Cl	7	5	1	i	-2	3	-2	3
O=C(CCN1C(=O)COc2ccccc21)NCCCN1CCCC1	·	·	5	i	-7	-4	-4	-3
Cc1c(CC(=O)NCCCC(=O)O)c(=O)oc2cc3c(cc12)CCC(C)(C)O3	10	-2	-3	?	3	7	26	-8
CCc1nc2c(OCc3ccccc3OC)cccn2c1N(C)C(=O)C(C)C	·	·	-13	·	3	0	13	·
CC(=O)Nc1ccc(N=Cc2c(O)c(C(=O)Nc3ccccc3)cc3ccccc23)cc1	?	9	·	i	·	·	8	98*
O=C(O)C1CCCCC1C(=O)NCCCCc1ccccc1 (stereo not given)	2	-7	-18	i	1	-1	·	-6
CC(C)(C)NC(=O)CSc1nnc(C2CC2)n1-c1ccccc1	15	9	·	i	1	1	10	6
CCOc1ccccc1NC(=O)COC(=O)C1CCC(=O)N1 (stereo not given)	·	·	-21	·	0	3	0	-17
CCc1c(C)nc(N2CCOCC2)[nH]c1=O	-2	6	-17	i	-5	1	-27	1
Cc1cc(C(=O)Nc2cccc3ccccc23)oc1C	·	·	-13	·	1	-3	1	·
COc1ccccc1C(=O)NCCC(=O)NCC1CCCCC1	·	·	-5	·	2	1	-12	10
COC(=O)c1ccccc1Sc1c(/C=N/OCc2ccc(Cl)cc2)c(C(F)(F)F)nn1C	0	11	-8	i	-5	-15	·	18
O=c1c2cc(NC(=S)NC3CC3)ccc2nc2n1CCCCC2	-2	6	-15	i	-2	-3	2	-9
Cc1ccc(-c2ccc(C#N)c(=O)n2CC(=O)N(C)C)cc1	-12	-12	17	i	0	-5	-4	1
O=C(Nc1ccccc1)N1CCN(CCc2ccccc2)CC1	2	-7	-9	i	2	2	-1	-6
COc1ccccc1N(C(=O)c1ccco1)C(C(=O)NC1CCCC1)c1ccncc1 (stereo not given)	2	3	-15	i	2	3	23	·

# Retrieved one by one from above:
molecule	eIF4H FP inh	PABP FP inh	UUG fidelity	Rce1 inhib	MT1-MMP act inh	MT1-MMP act inh RFP	HIV Env fusion	CSC inhib
O=C(CCc1nnc(Cc2c[nH]c3ccccc23)o1)NC1CCCC1	-12	-6	-8	i	1	3	14	-5
CC(NC(=S)Nc1ccc(Cl)cc1)C(c1ccccc1)N1CCOCC1 (stereo not given)	-11	-8	-33	i	1	-4	0	-1
CCN(CC(=O)NCc1ccncc1)S(=O)(=O)c1cc(Cl)ccc1Cl	-2	1	-13	i	5	3	6	6
Cc1ccc2nc(NC(=O)CN(C)S(=O)(=O)c3ccc(Br)s3)sc2c1	0	-3	-16	i	4	-7	·	51

# Remaining list, next part
molecule	eIF4H FP inh	PABP FP inh	UUG fidelity	Rce1 inhib	MT1-MMP act inh	MT1-MMP act inh RFP	HIV Env fusion	CSC inhib
Cc1cc(C)c(O)c(-c2cc(C(=O)Nc3c(C)n(C)n(-c4ccccc4)c3=O)[nH]n2)c1	-10	0	-8	i	1	-2	29	18
COc1cccc(CN(C)CC(O)COc2cc(Cl)ccc2Cl)c1 (stereo not given)	8	9	6	i	-1	2	5	13
O=C(N/N=C/c1cccnc1)c1cc(-c2ccccc2Cl)nc2ccccc12	-5	3	-10	i	-10	-4	-22	1
Cc1ccc(NC(=O)CCC(=O)c2ccc(Cl)s2)nc1	·	·	-22	·	-4	0	-5	2
CCCCCn1c(=O)c(-c2nc3ccccc3[nH]2)c(O)c2ccccc21	20	10	·	+	4	-4	-14	19
Cc1cc(C)nc(SCSc2nc(C)cc(C)n2)n1	-7	-4	·	i	2	0	·	·
CCN(CC)C(=O)c1[nH]cnc1C(=O)NCC(=O)OC(C)(C)C	-1	7	-2	i	4	3	-14	-1
CC(C)Cc1nnc(NC(=O)CN2C(=O)NC3(CCCC3)C2=O)s1	·	·	·	i	-2	1	·	7
Cc1ccc(-c2c[n+](CC(=O)Nc3c(C)cccc3C)c3n2CCC3)cc1	-1	-8	-17	i	1	-4	8	5

# Structures above shown as hits in Rce1 inhib:
compound | UUG fidelity | Rce1 inhib | MT1-MMP act inh | MT1-MMP act inh RFP | HIV Env fusion
CCCCCn1c(=O)c(-c2nc3ccccc3[nH]2)c(O)c2ccccc21 | · | + | 4 | -4 | -14

# Screening data (PubChem)
